Source: PubChem
Vaccinia Venus = qHTS for Stage-Specific Inhibitors of Vaccinia Orthopoxvirus: Venus Reporter Primary qHTS | Vaccinia virus Venus reporter expression, fluorescence | Potency, µM (series often up to 36.5 µM), inactives show at the highest dose activity change, negative = inhibition, usual class: inhibitors | 330,000 compounds, 0.46% hits; active means well fitted inhibition curve with a large enough effect; inconclusive means small, poorly fitted or top-dose-only effect; inactive means no such curve, though single readings can be large or run the other way; tested in A549 cells; further: nearly all actives have a fitted effect of over 30% in size; inactives centre near -10
VACV mCherry inh = qHTS for Stage-Specific Inhibitors of Vaccinia Orthopoxvirus: mCherry Reporter Primary qHTS. AID 720579, 2013. 310,000 compounds, 0.63% hits. Potency, µM (top dose mostly 36.5 µM), without a hit: at the top dose activity change, negative = inhibition, actives largely listed as inhibitors. Vaccinia virus mCherry reporter infection, fluorescence; about a quarter of the inactives have no number; active = well fitted inhibition curve with a large enough effect; inconclusive = small, poorly fitted or top-dose-only effect; inactive = no such curve, though single readings can be large or run the other way; tested in A549 cells; further: nearly all actives have a fitted effect of over 35% in size; inactives centre near -10
Starred values were filed as active, the others as inactive; i = inactive; ? = inconclusive; · = not tested or not shown; [ ] = another dose, or the depositor's remark. On the % scale 0 is the no-effect control and ±100 the full control effect; potency means the concentration at half of the fitted maximal effect. Not a hit list. Share with any hit: about 0.87%.

SMILES	Vaccinia Venus	VACV mCherry inh
CCOc1ccc(NC(=O)C2CCC(CNS(=O)(=O)c3ccc4c(c3)CCCC(=O)N4)CC2)cc1 (centres undefined)	0%	-6%
Cc1nc2ccccc2c2c1CC(C)S2 (centres undefined)	-17%	-19%
CCOC(=O)c1c(C)[nH]c(C)c1S(=O)(=O)N1CCCC(C(=O)Nc2cccc(C)n2)C1 (centres undefined)	-11%	-10%
Cc1cc(C(F)(F)F)nc(SCC(=O)NC2=NC(=O)C(C)S2)n1 (centres undefined)	-13%	-4%
CCc1cccc(CC)c1NC(=O)CN1C2CCCC1CC(NC(=O)Nc1cccc(OC)c1)C2 (centres undefined)	?	?
COc1ccc2c(c1OC)C(=O)N1C2SC(C)(C)[C@H]1C(=O)NCCCOC(C)C (some centres undefined)	-14%	-21%
O=C(CSc1nc(-c2ccccc2)nc2c1CCCC2)c1ccc(Cl)cc1	-1%	-6%
O=C(NCc1ccco1)c1cccc(C(F)(F)F)c1	6%	8%
O=C(c1ccc2c(c1)OCCO2)N1CCCCC1	-11%	·
CCN(Cc1ccccc1)c1ccc(/C=C/c2ccnc3ccccc23)cc1	16%	-11%
O=C(/C=C/c1cccc([N+](=O)[O-])c1)NC1CC2CCC1C2 (centres undefined)	-15%	-19%
Nc1nonc1-c1noc(-c2ccc(Br)o2)n1	-11%	-18%
CC(C)(C)c1ccccc1OCCOCCSc1ncccn1	-15%	-21%
CC(C)c1cccc(C(C)C)c1NC(=O)OC1CCCCC1	-1%	8%
CCOC(=O)c1ccc(NC(=S)N2CCCC2c2ccc(OC)c(OC)c2)cc1 (centres undefined)	-8%	i
CC[N+]1(CC)CC2=Cc3c(ccc4ccccc34)CC2C1 (centres undefined)	-30%	-9%[1.46 µM]
CCOc1ccc(OCC)c(NC(=O)c2cc(CN3CCOCC3)on2)c1	-4%	1%
COc1cccc(CNC(=O)CSc2n[nH]c(-c3ccccc3Cl)n2)c1	-5%	-7%
Cc1ccccc1-c1noc(-c2cccnc2N2CCN(c3ccccc3)CC2)n1	-4%	-10%
Cc1occc1C(=O)Nc1c(Cl)cccc1Cl	-4%	-5%
NC(=O)c1nn(-c2ccccc2)nc1NC(=O)CSc1nnnn1-c1ccc(Cl)cc1	-22%	?
O=C(Nc1nnc(-c2ccc(Cl)cc2)o1)NC1CCCCC1	-21%	·
O=C(Nc1ccc(S(=O)(=O)N2CCCC2)cc1)C1CC(=O)N(c2ccc(F)cc2)C1 (centres undefined)	-2%	-8%
O=C(COC(=O)/C=C/c1cccs1)NC1CCCCC1	-14%	-11%
CC(c1ccco1)N(C(=O)c1ccccc1NS(=O)(=O)c1ccc(Cl)c([N+](=O)[O-])c1)c1ccccn1 (centres undefined)	-8%	-13%
CC(C)c1onc(C(=O)N2C(C)CCCC2C)c1[N+](=O)[O-] (centres undefined)	-9%	-26%
CC1CCc2c(sc(Nc3nc4c(F)cccc4s3)c2C(N)=O)C1 (centres undefined)	67%[activator]	5%
CC(C)(C)n1nnnc1C(c1cccs1)N1CCN(Cc2ccccc2)CC1 (centres undefined)	-9%	-14%
COCC(C)NC(=O)COc1nncc2ccccc12 (centres undefined)	-8%	-7%
CC1CCN(C(=O)CN2C(=O)c3cccc4cccc(c34)C2=O)CC1	3%	-2%

A draw from above in order of heavy-atom count, smallest number first:
SMILES	Vaccinia Venus	VACV mCherry inh
Cc1nc2ccccc2c2c1CC(C)S2 (centres undefined)	-17%	-19%
Cc1occc1C(=O)Nc1c(Cl)cccc1Cl	-4%	-5%
O=C(Nc1nnc(-c2ccc(Cl)cc2)o1)NC1CCCCC1	-21%	·
CC1CCc2c(sc(Nc3nc4c(F)cccc4s3)c2C(N)=O)C1 (centres undefined)	67%[activator]	5%
O=C(Nc1ccc(S(=O)(=O)N2CCCC2)cc1)C1CC(=O)N(c2ccc(F)cc2)C1 (centres undefined)	-2%	-8%

(continued)
SMILES	Vaccinia Venus	VACV mCherry inh
Cc1nc2ccccc2c(=O)n1NC(=O)c1ccco1	-7%	-10%
Cc1ccc(NC(=O)CSCC(=O)NCc2cccc(C(F)(F)F)c2)cc1	-10%	-22%
Cc1ccc(Cn2c(=O)n(CCCCC(=O)NCc3ccccc3Cl)c(=O)c3ccccc32)cc1	-23%	?
O=[N+]([O-])c1ccccc1-c1ccc(C(=S)N2CCCCC2)o1	-14%	-3%
COc1ccc(Oc2nc(-c3ccncc3)nc3ccccc23)cc1	-7%	-14%
Nc1c([N+](=O)[O-])cc(F)c(N2CCNCC2)c1Br	-24%	?
CCN(CC)c1ccc(C2Nc3cccc4cccc(c34)N2)cc1	-13%	i
CCCCn1c(/C=N/Nc2nc3ccccc3[nH]2)nc2ccccc21	11µM*	?
CCCCNC(=O)C(NC(=O)c1cccc2ccccc12)C(=O)c1ccccc1 (centres undefined)	-27%	3%
CCOC(=O)C1=C(C)OC(N)=C(C#N)C1c1cc(F)ccc1F (centres undefined)	-22%	-1%
CSCCC(NC(=O)COc1ccccc1)C(=O)NCC(C)(C)N1CCOCC1 (centres undefined)	-18%	i
Cc1ccccc1OCCCSc1nc2ccccc2[nH]1	-20%	-26%
CCOC(=O)c1nn(C)c2[nH]c(=O)n(C)c(=O)c12	-12%	-7%
Cc1nn(Cc2c(F)cccc2Cl)c(C)c1[N+](=O)[O-]	1%	-7%
Cc1ccc(N2CCN(S(=O)(=O)c3c(C)[nH]c(=O)[nH]c3=O)CC2C)cc1 (centres undefined)	-6%	2%
COc1cccc(C(=O)C2CCCN(Cc3cccc(C)n3)C2)c1 (centres undefined)	-2%	-3%
Cc1ccc(-c2nc3ncccc3o2)cc1NC(=O)c1ccc(-c2ccc(Cl)cc2)o1	-6%	-4%
COc1cccc(-c2sc3ccc(OC)cc3c2-c2ccc(C(N)=O)cc2)c1	-10%	i
COc1ccc(-c2cccc(NS(=O)(=O)c3cccs3)c2)nn1	-16%	-15%
COC(=O)c1ccc(C(=O)OC)c(NC(=O)Oc2ccccc2)c1	-6%	i
Cc1ccc2nc(NC(=O)c3cc(-c4ccco4)nc4ccccc34)sc2c1	?	?
CC(C)(C)c1ccc(C(=O)NCC2CCCN2S(=O)(=O)c2ccccc2)cc1 (centres undefined)	?	?
NC(=O)C1CCN(/C=C2\C(=O)NC(=O)N(Cc3ccco3)C2=O)CC1	8%	-2%
O=C(Cc1ccc(Cl)cc1Cl)NCC1(N2CCOCC2)CCCCC1	-16%	-10%
Clc1cccc(Oc2cnns2)c1Cl	-14%	-7%
COc1ccc(O)c(C(=O)c2cnc3c(c2)c(C)nn3CCO)c1	-13%	?
COCCNC(=O)/C(C#N)=C/c1c(N2CCCCCC2)nc2ccccn2c1=O	-8%	i
O=C(N1CCOCC1)n1cnc2ccccc21	-9%	-7%
COc1cc(C)c(S(=O)(=O)NOCc2ccc([N+](=O)[O-])cc2)c(C)c1C	-22%	i
CCCCCC(=O)C(=O)c1ccc(O)cc1O	-9%	i

6 consecutive records already listed:
SMILES	Vaccinia Venus	VACV mCherry inh
COc1cccc(C(=O)C2CCCN(Cc3cccc(C)n3)C2)c1 (centres undefined)	-2%	-3%
Cc1ccc(-c2nc3ncccc3o2)cc1NC(=O)c1ccc(-c2ccc(Cl)cc2)o1	-6%	-4%
COc1cccc(-c2sc3ccc(OC)cc3c2-c2ccc(C(N)=O)cc2)c1	-10%	i
COc1ccc(-c2cccc(NS(=O)(=O)c3cccs3)c2)nn1	-16%	-15%
COC(=O)c1ccc(C(=O)OC)c(NC(=O)Oc2ccccc2)c1	-6%	i
Cc1ccc2nc(NC(=O)c3cc(-c4ccco4)nc4ccccc34)sc2c1	?	?

(cont.)
SMILES	Vaccinia Venus	VACV mCherry inh
O=C1NCC(c2ccccc2)(c2ccccc2)C(=O)N1	-6%	-20%
CCCCC(=O)Nc1ccc(Cl)cc1F	-9%	i
CCN(CC)CCCN(Cc1cc2cc3c(cc2[nH]c1=O)OCO3)C(=S)Nc1ccc(OC)cc1	-20%	-23%
CCc1ccc(NCc2cc3cc4c(cc3n(CC(=O)Nc3cccc(OC)c3)c2=O)OCO4)cc1	8%	0%
Clc1ccc(Cl)c(-c2nn3c(COc4ccccc4)nnc3s2)c1	-7%	i
O=S(=O)(c1ccc(F)cc1)N1CCN(CCc2ccccc2)CC1	-5%	-10%
COc1ccc(OC)c(-n2cnc3cc(C(=O)O)ccc32)c1	-18%	·
Cc1ccc(C)c(NC(=O)Cn2ccn(-c3ccc4c(c3)OCO4)c(=O)c2=O)c1	-2%	-10%
CCCCn1c(N)c(N(CCOC)C(=O)CSc2n[nH]c(-c3ccc(OC)cc3)n2)c(=O)[nH]c1=O	-5%	i
COc1ccc(OC)c(NC(=O)CCC(=O)Nc2nnc(C(C)C)s2)c1	-10%	i
O=S(=O)(NCCO)c1ccc2c(c1)Cc1cc(S(=O)(=O)NCCO)ccc1-2	-7%	-16%
C=CCC[C@H](CCCCC)OC(=O)/C=C/[C@@H](O)[C@H](O)C[C@H](O)CC=C	-26%	-26%
Cc1ccc(Nc2ncnc3c2cnn3C)cc1	-16%	-10%
Cc1ccc(-c2c3c(=O)n(C)c(=O)n(C)c3c3c(-c4cccc(C)c4)nc4ccccc4n23)cc1	-2%	-13%
Cc1c(Cl)c([N+](=O)[O-])nn1Cc1ccc(C(=O)N/N=C\c2ccccn2)o1	?	-25%
O=S(=O)(c1ccc2ccccc2c1)N1CCN(C2Cc3ccccc3C2)CC1	-16%	-10%
Cc1oc(-c2cccs2)nc1CSCC(=O)NC1CC1	?	-16%
CCCCN(C)C(=O)c1ccc(Nc2nc(C(N)CCc3ccccc3)cs2)nc1 (centres undefined)	?	?
Clc1cccc(N2CCN(c3ncnc4c3nc3n4CCCCC3)CC2)c1	-21%	?
CSc1ccccc1C(=O)NCC(c1ccco1)N1CCCCC1 (centres undefined)	0%	-2%
S=C(NCC(c1cccnc1)N1CCOCC1)NC1CCCCC1 (centres undefined)	-7%	i
Cc1cc(C(=O)Cn2ncc(Cl)c(Cl)c2=O)c(C)n1CC(F)(F)F	14µM*	?
O=C(OCc1ccc([N+](=O)[O-])cc1)C1CC(=O)N(Cc2ccccc2)C1 (centres undefined)	7%	-15%
O=S(=O)(Cc1ccccc1)C(CCCc1ccccc1)S(=O)(=O)Cc1ccccc1	-14%	-21%
COc1ccc(Cc2nc(-c3ccc(Br)cc3)no2)cc1	-8%	i
O=c1oc2ccc(Br)cc2cc1-c1csc(-c2ccccc2)n1	-10%	-9%
COc1cc(C(C2=C(O)CC(C)(C)CC2=O)C2C(=O)CC(C)(C)CC2=O)cc(OC)c1OC (centres undefined)	-4%	-3%
CN(C(=O)c1cccc(NC(=O)Cc2cccc([N+](=O)[O-])c2)c1)C1CCCC1	?	-5%
COc1ccc(S(=O)(=O)n2c([N+](=O)[O-])cnc2C)c(C)c1C	-5%	-5%
O=C(CSc1nncn1-c1ccccc1)NC1CCCc2ccccc21 (centres undefined)	-9%	?
CCCN(CC(=O)Nc1ccccc1C)C(=O)CCCc1c[nH]c2ccccc12	-7%	i
O=S(=O)([N-]c1nc2ccccc2nc1-[n+]1ccc(Cc2ccccc2)cc1)c1ccc(Br)s1	?	-23%
CC(/C=N/NC(=O)c1nn(C)c(C)c1Br)=C\c1ccccc1	0%	1%
CN1CCN(C(=O)Nc2cccc3ccccc23)CC1	-13%	-11%
Cc1ccc(-c2nc3n(n2)C(=O)CC(c2ccc(Cl)cc2)S3)cc1 (centres undefined)	-19%	-22%
Cc1cc2c(c(=O)o1)C(CCC1CCCCC1)C(C#N)=C(N)O2 (centres undefined)	15%	i
CC(=O)Nc1sc2c(c1C(c1ccccn1)N1CCCC1)CCCC2 (centres undefined)	-19%	-4%
CN(Cc1ccccc1)C(=O)c1[nH]cnc1C(=O)Nc1ccon1	-8%	i
C/C(=N/OC(=O)c1ccccc1Br)c1ccc(C)cc1	2%	-10%
Cc1nn(CCCC(=O)NCc2ccccc2)c(C)c1[N+](=O)[O-]	-3%	1%
COCCCNC(=O)C[C@H]1C[C@H](C(=O)N2CCCCC2)[C@@]2(CCc3ccccc3)c3[nH]c4cc(CCC(=O)N(C)C)ccc4c3CCN2C1=O	-14%	?
CCNC(=S)NN(c1ccccc1)c1ccccc1	-15%	i
O=C(Nc1ccncc1)C1CC(=O)N(Cc2ccccc2)C1 (centres undefined)	2%	-11%
COc1ccc(C)cc1S(=O)(=O)N1CCC(C(=O)NC2CCCC2)CC1	-18%	-3%
Cc1cccnc1NC(=O)/C=C/c1ccc2c(c1)OCO2	4%	5%
O=C(NN=Cc1ccc(F)cc1)C1CC1	-3%	i
O=C(Nc1nc(-c2ccccn2)cs1)c1ccc(Cl)s1	?	3.2µM*
C1CCCN(C2CCNCC2)CC1	-11%	-9%
Cc1nn(-c2ccccc2)c(Cl)c1C(=O)OCC(=O)NCCc1ccccc1	-7%	-4%
Cc1ccc(NS(=O)(=O)c2cccc3cccnc23)c(Br)c1	-9%	i
Cc1ccc(OCC(=O)Nn2c(C)nc3ccccc3c2=O)c(C(C)C)c1	-9%	-2%
COc1cc(OC)c(C(=O)OC(C)C(=O)Nc2cc(C(F)(F)F)ccc2Cl)cc1OC (centres undefined)	-20%	-13%
CCOC(=O)c1sc(=S)n(-c2ccccc2)c1N(C(C)=O)C(C)=O	-8%	-16%
Cc1sc(NC(=O)CN(C(=O)c2ccccc2F)C2CCCC2)c(C(N)=O)c1C	-7%	i
